NPYLR7 ag = activates Aedes aegypti NPYLR7 receptor; HEK293T NPYLR7/Galpha15, GCaMP6s calcium fluorescence; activation, % at 10 µM; actives 0.15% (n = 270,000); AID 1259423; in the data active = activation above about 40%;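 note: 0% = vehicle and 100% = reference agonist at the receptor; some compounds past the cut are filed as inactive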
NPYLR7 ag max-min = also measured in NPYLR7 ag; calls as there; activation, %; measured here: Max-Min RFU normalised activation; some inactives read as strong as hits;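 span of the calcium signal over five minutes; 0% = vehicle and 100% = native peptide agonist; compound fluorescence can raise it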
* marks the source's active call; other numbers are inactive results; & = joins results of further samples. An excerpt. The share of hits here may be higher or lower than overall.

SMILES	NPYLR7 ag	NPYLR7 ag max-min
CCCC(=O)N1N=C(c2ccc(NS(C)(=O)=O)cc2)CC1c1ccco1 (stereo not drawn)	-2	0
CCC(CC)c1cc(CNc2ncnc3[nH]ncc23)on1	-1	2
CSc1cccc(-n2nnc(C(=O)OCc3ccc(Cl)cc3)c2C)c1	4	-5
CNc1ncnc2c1ncn2[C@@H]1O[C@H](CO)[C@@H](O)[C@H]1O	30	29
COc1ccc(S(=O)(=O)N2CCC(Cc3ccccc3)CC2)cc1N1CCN(C(=O)/C=C/c2ccccc2Cl)CC1	18	1
CCc1nn2c(N3CCCC3)cc(C)nc2c1-c1ccccc1	-2	-6
CCCCc1ccc(S(=O)(=O)N2CCC(Cc3ccc(C(F)(F)F)cc3)CC2)cc1	19	4
O=C(CCn1ccccc1=O)Nc1ccc(Cl)cc1Cl	3	3
COc1ccc2oc(=O)n(C3CCN(C(=O)c4ccc5c(c4)OCO5)CC3)c2c1	6	4
Cc1ccc2occ(CN3CC[C@@H](N4CCCCCC4)[C@H](O)C3)c(=O)c2c1	4	1
COc1cccc(C(=O)N2CCCC(C(=O)NC3CCCC[C@H]3NC(=O)c3ccc(F)cc3)C2)c1 (stereo partly drawn)	-2	-1
CCC(C)N(Cc1cccn1Cc1cccc(OC)c1)C(=O)CN(CCCOC)C(=O)c1ccc([N+](=O)[O-])cc1 (stereo not drawn)	-2	1
C=CCOCC(O)CN1CCOC(COc2ccc3c(c2)OCO3)C1 (stereo not drawn)	6	0
CN(Cc1csc(-c2ccccc2)n1)Cc1nc(-c2cnccn2)no1	14	4
CCc1nc(C)c(C(=O)NCCN2CCN(c3ncccn3)CC2)s1	22	9
CCCCN(C)c1ncc(Cl)c(C(=O)N2c3ccccc3CC2C)n1 (stereo not drawn)	-6	-7
CCOc1cc(/C=C2/SC(=S)N(CC(=O)O)C2=O)ccc1Oc1ccc([N+](=O)[O-])cc1[N+](=O)[O-]	5	18
O=C(Nc1ccc(N2CCc3ccccc3C2)c(C(=O)NCCc2ccccc2)c1)c1ccc(Br)cc1	5	18
CC1(C)NC(=O)N(CCOc2ccc([N+](=O)[O-])cc2)C1=O	-7	13
COc1ccc(C(C)=O)cc1CN1C(=O)C(C)ON=C1c1cccs1 (stereo not drawn)	6	1
COc1cc(OC)cc(-c2nc(-c3nonc3N)no2)c1	-3	-6
O=C(NC1=NCCS1)C1CCN(C(=O)c2ccc(F)cc2F)CC1	9	5
O=C(c1ccc(CSc2nnc(-c3ccccc3Cl)n2-c2ccc(F)cc2)cc1)N1CCCC1	16	33
CC(=O)NC(C)(C)c1noc(C2CC(c3ccc(Cl)s3)=NO2)n1 (stereo not drawn)	0	-3
COCCn1c(C)c(C)n2c3c(=O)n(CC(=O)OC)c(=O)n(C)c3nc12	13	8
CC(=O)N1CCN(C(=O)c2coc(CN(CCc3c[nH]c4ccccc34)Cc3cccc(Cl)c3Cl)n2)CC1	8	4
c1ccc(-c2csc3ncn4nnnc4c23)cc1	6&2	3&0
Cc1ccc(CNC(=O)c2ccc3c(c2)CCCN3S(C)(=O)=O)cc1	3	2
CCOC(=O)c1c(CC(C#N)(c2ccccc2)c2ccccc2)n(C)c2cc(Br)c(OC)cc12	12	15
Cc1cccc(CC(=O)NCC(c2ccsc2)N2CCN(C)CC2)c1 (stereo not drawn)	8	-2
CCc1nc2ccc(C(=O)Nc3cccc(OC)c3)cn2c1N(CC)C(=O)CCC1CCCC1	17	11
CN(CC1CC1)C(=O)c1ccc2c(c1)[nH]c(=O)n2C1CCCC1	2	2
Cc1cc(C)n(CCc2c(-c3ccccc3)ncn2C(C)Cn2cccn2)n1 (stereo not drawn)	3	-3
COC(=O)c1ccc(C(=O)N(CCN(C)C)c2nc3c(C)c(C)ccc3s2)cc1	-1	-6
Cc1nn(C)c(C)c1S(=O)(=O)N1CCN(C(c2ccccc2)c2ccc(Br)cc2)CC1 (stereo not drawn)	20	18
Cc1oc(-c2cc3c(cc2Cl)OCO3)nc1CN1CCCCC1c1nccs1 (stereo not drawn)	7&-4	2&-6
Cc1cc(C)n(-c2ccc(Cl)c(C(=O)OCC(=O)NC(N)=O)n2)n1	1	2
CCN(CC)CCn1c(=N)n(CC(=O)C23CC4CC(CC(C4)C2)C3)c2ccccc21	-5	-11
O=C(CCN1C(=O)c2ccccc2C1=O)N1CCN(C2c3ccccc3-c3ccccc32)CC1	-2	-2
CCN1CCN(C(c2cccs2)c2c(O)cc(C)n(CC)c2=O)CC1 (stereo not drawn)	11	4
COc1cccc(CCC2CCCN(C(=O)CSC)C2)c1 (stereo not drawn)	4	1
Cc1sc(N=Cc2ccccc2O)c(C#N)c1C	-1	-5
Oc1ccccc1C=NN1CCN(c2ccc(Cl)cc2)CC1	-5	-8
O=C(O)C1Cc2ccccc2CN1C(=O)COc1ccc(Cl)cc1 (stereo not drawn)	2	2
Cc1cc(C(=O)N(Cc2ccccc2)CC(F)F)c(C)o1	16	11
COc1cc(C(=O)Nc2nc(-c3ccc4c(c3)OCCO4)cs2)cc(Cl)c1OCC(N)=O	0	-1
CNS(=O)(=O)Cc1ccccc1CNCc1ccc(OC(F)F)cc1	7	5
O=C(c1cccc(Cl)c1)N1CCN(c2nccc(-c3ccco3)n2)CC1	-6	-10
CC(=O)NC1=NN(C(C)=O)C2(S1)C(=O)N(Cc1ccccc1Cl)c1ccccc12 (stereo not drawn)	-6	-5
COCOc1cccc(CN2CCC2(C)C(=O)NCCNC(C)=O)c1 (stereo not drawn)	0	-2
O=C(NS(=O)(=O)Cc1ccc(Br)cc1)c1ccco1	7&-3	1&-3
CNc1nc2cnc(Nc3ccc(F)c(Cl)c3)cc2n1CC1CC1	19	8
Cc1c(C)n2c3c(=O)n(C)c(=O)n(C)c3nc2n1Cc1ccc(Cl)c(Cl)c1	3	5
O=C(NCc1ccccc1CN1CCCC1=O)C1CCCC1	0	-2
Cc1nnsc1CN(C)C(=O)c1c(O)cccc1O	1	-3
Cc1ccc(-c2cn(S(=O)(=O)c3ccc(F)cc3)nc2N)cc1	-2	-3
COc1ccc(NC(=O)C2CCN(C(=O)[C@@H](Cc3ccccc3)NC(=O)Nc3ccc(-c4ccccc4)cc3)CC2)cc1	4	0
CCCCn1c(O)c(C#N)c(C)cc1=O	2	9
Cc1nc(C2(NCc3csc(-c4ccoc4)n3)CCCC2)no1	3	46
CC(Cc1cccs1)NC(=O)c1ccc(OC2CCN(Cc3ccccn3)CC2)cc1 (stereo not drawn)	10	5

The listing continues.
SMILES	NPYLR7 ag	NPYLR7 ag max-min
COc1ccc2[nH]c3c(c2c1)CCN(C(=O)c1cc(C)nc(Cl)c1)C3COCc1ccccc1 (stereo not drawn)	-10	-12
Cc1cccc(S(=O)(=O)N2CCN(C(=O)c3ccco3)CC2)c1	0	-1
CC(c1ccccc1)N(Cc1cc(N)ccc1N(C)C)C(=O)c1cccc(F)c1 (stereo not drawn)	8	2
CCc1c(O)n2c(nc3ccccc32)[nH]c1=O	-4	-6
Cc1cc(C(=O)Nc2sc3c(c2-c2nc4ccccc4s2)CCCC3)on1	10	15
C#CCN(C)C(=O)c1ccc(-c2ccc(C3CCCCC3)cc2)s1	5	0
O=C(Cc1c[nH]c2ccccc12)N(CCO)Cc1cccs1	7	4
c1coc(CNc2nc(N3CCOCC3)nc(N3CCOCC3)n2)c1	-6	-14
COC(=O)c1ccc(N=Cc2nc(-c3ccccc3F)oc2O)cc1	-4	-5
COC(=O)C1CSCC(c2ccccc2)N1CC(=O)NC(C)C (stereo not drawn)	2	1
Cc1ccc(C)c(-c2[nH]ncc2CN2CCCC(c3ccn[nH]3)C2)c1 (stereo not drawn)	1	0
Cc1ccc(-n2nnc(C(=O)N(C)C3CCS(=O)(=O)C3)c2C)cc1 (stereo not drawn)	2	9
O=C(/C=C/c1c(F)cccc1F)NCCC(=O)Nc1ccncc1	9	9
N#CC(c1cnn(-c2ccccc2)c1)N1CCN(C(=O)CCl)CC1 (stereo not drawn)	0	-1
COc1ccc(-c2nnc(NC(=O)C(NC(=O)Nc3c(Cl)cccc3Cl)C(C)C)s2)cc1 (stereo not drawn)	15	25
COc1ccccc1-c1nc2ccc(C)cn2c1NC(=O)CC(C)C	-4	-1
O=C(NC1CCN(c2ccccc2C(=O)NCc2cccnc2)CC1)c1cccc(Br)c1	3	10
Cc1cccc(-c2nc(NC(=O)N3CCC(Oc4cccnc4)CC3)n[nH]2)c1	10	1
OCCn1c(-c2ccccc2CO)nc2ccccc21	10	9
CCN(CC1CCOCC1)C(=O)C1CCCN(C(=O)COC)C1 (stereo not drawn)	0	-2
Cc1ccccc1CO[C@]1(C(=O)NC2CC2)CC(OCc2cccc(Cl)c2)[C@@H]2OC(C)(C)O[C@@H]2C1 (stereo partly drawn)	17	22
CCCN(CC(=O)Nc1ccc(F)c(F)c1F)C(=O)Cc1c(C)noc1C	0	-2
CC(C)NS(=O)(=O)Cc1ccc(CNC(=O)Nc2ccc(-c3ccccc3)cc2)cc1	-6	-5
O=C(O)c1ccc(C(=O)Nc2ccc(Cl)cc2)c(C(=O)O)c1	-1	-1

Reformatted: results already given
The line under a structure holds: NPYLR7 ag, NPYLR7 ag max-min
Cc1cc(C(=O)N(Cc2ccccc2)CC(F)F)c(C)o1
 : 16, 11
COc1cc(C(=O)Nc2nc(-c3ccc4c(c3)OCCO4)cs2)cc(Cl)c1OCC(N)=O
 : 0, -1
CNS(=O)(=O)Cc1ccccc1CNCc1ccc(OC(F)F)cc1
 : 7, 5
O=C(c1cccc(Cl)c1)N1CCN(c2nccc(-c3ccco3)n2)CC1
 : -6, -10
CC(=O)NC1=NN(C(C)=O)C2(S1)C(=O)N(Cc1ccccc1Cl)c1ccccc12 (stereo not drawn)
 : -6, -5

(next part)
SMILES	NPYLR7 ag	NPYLR7 ag max-min
Cc1nnc(NC(=O)c2ccc(S(=O)(=O)Nc3cccc(C(F)(F)F)c3)o2)s1	-8	-6
O=C(CN(Cc1ccccc1)c1nc(Cc2ccc(Cl)cc2)ns1)NCc1ccc(F)cc1	-11	-2
CCC/C=C/c1cncc(C(=O)N2CCOCC2)n1	18	15
CN(C)CCN1CCC(CNC(=O)Nc2cccc(Cl)c2)CC1	4	3
COc1ccc(NC(=O)CC(NCCC2=CCCCC2)C(=O)O)c(OC)c1 (stereo not drawn)	5	2
O=C(Nc1nnc(Cc2ccccc2)s1)c1cccs1	3	1
COC(=O)c1ccc(CSc2c(CC(C)C)cnc3c2c(=O)n(C)c(=O)n3C)cc1	5	4
CC(C)c1cc(C(=O)N2CCc3c(ncnc3N(C)C)C2)nc2ncnn12	-1	-7
CSc1nnc(SC2CC(=O)N(c3cc(Cl)cc(Cl)c3)C2=O)s1 (stereo not drawn)	-7	-6
Cc1cc(Oc2cc(N3CCNC(C)C3)ncn2)ccc1Cl (stereo not drawn)	9	16
C=CCN(CC(=O)N(Cc1ccccc1)Cc1cccn1Cc1cccc(C(F)(F)F)c1)C(=O)c1ccc(Cl)cc1	24	26
COc1ncccc1CNc1cc(C)nc(C)n1	-1	-2

Quoted at random: 2 compounds from above, in no set order.
SMILES	NPYLR7 ag	NPYLR7 ag max-min
CC(C)c1cc(C(=O)N2CCc3c(ncnc3N(C)C)C2)nc2ncnn12	-1	-7
O=C(Nc1nnc(Cc2ccccc2)s1)c1cccs1	3	1

One compound at a time, as listed above:
`C=CCOCC(O)CN1CCOC(COc2ccc3c(c2)OCO3)C1` (stereo not drawn) reads NPYLR7 ag: 6; NPYLR7 ag max-min: 0
`CCCCN(C)c1ncc(Cl)c(C(=O)N2c3ccccc3CC2C)n1` (stereo not drawn) reads NPYLR7 ag: -6; NPYLR7 ag max-min: -7
`Oc1ccccc1C=NN1CCN(c2ccc(Cl)cc2)CC1` reads NPYLR7 ag: -5; NPYLR7 ag max-min: -8

(continued)
SMILES	NPYLR7 ag	NPYLR7 ag max-min
Nc1cc(-c2ccc(Cl)cc2)nn1-c1ccc(C(=O)NCCc2ccc(O)cc2)cc1	0	-3
COC(=O)c1ccc(C(=O)N2CCC(c3nc(-c4ccccc4F)no3)CC2)cc1	1	-3
Cn1c(=O)c2c(SCC(=O)Nc3ccc(C(N)=O)cc3)nc(-c3ccccc3)nc2n(C)c1=O	-5	-7
Cc1nccn1CC1CCCN(C(=O)CSCc2ccccc2Cl)C1 (stereo not drawn)	1	-9
CCc1noc(C)c1C(=O)N1Cc2cnc(C(C)(C)C)nc2C1	0	-8
COc1ccnc(CN(C)C(=O)c2ccc(NC(=O)c3ccoc3C)cc2)c1	0	-3
CNC(=O)[C@@H]1C[C@H](N)CN1Cc1cccn1-c1ccc(OC)cc1	10	1
CCCN1CCCN(CC(=O)NC2CCN(C3CC3)CC2)CC1	0	-2
O=C(Cn1ccn2nc(-c3ccccc3)cc2c1=O)Nc1ccc(F)cc1	2	1
COC(=O)N1CCN(C(C(=O)Nc2cccc(Cl)c2)C2CCCC2)CC1 (stereo not drawn)	-3	-2
COc1ccc(-n2nc(C)c(-c3ccccc3)c2NC(=O)CN(C(=O)c2ccc(F)cc2)C(C)C)cc1	2	10
CC1CN(c2ccc(NC(=O)c3ccc4c(c3)CCO4)cn2)CC(C)O1 (stereo not drawn)	-1	-2
CC(C)(C)c1ccc(C(=O)N2CCC2(C)C(=O)Nc2cccc3ccccc23)cc1 (stereo not drawn)	9	8
Cn1cc(/C=C2/COc3c(Br)cccc3C2=O)cn1	-7	-8
CCc1oc2cc(OC(C)=O)ccc2c(=O)c1-c1ccc2c(c1)OCCO2	2	0
Oc1cccc2c(NC(=S)NC3CC4CCC3C4)cccc12 (stereo not drawn)	1	7
O=C1c2ccccc2C(=O)c2c(OCc3ccccc3)ccc(OCc3ccccc3)c21	-3	-9
CCOC(=O)N1CCN(C(=O)CCN(CC(C)C)c2nc(Cc3ccccc3)ns2)CC1	-10	-7

Screening data deposited in PubChem by Fisher Drug Discovery Resource Center.
